Vaccinia stage: blocks a specific stage of Vaccinia orthopoxvirus infection; Vaccinia-infected cells, mCherry/Venus stage reporter fluorescence; stronger effect = lower value; some inactives read as strong as hits; activity change (mCherry), % (test concentration not listed); 0.01% of 89,000 active; AID 1053133;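 active = mCherry past -33% and 40 or more points under the early reporter, replicates agreeing; inconclusive = past -33% without that gap or agreement; tested in A549 cells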;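 also: scaled between vehicle wells and reference inhibitor wells; 23 nL library stock went into each well; one replicate is shown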
Vaccinia stage Venus: second read-out of Vaccinia stage, no call of its own (marks repeat the call); activity change (Venus), %; measured here: Venus reporter, other viral stage;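 negative = less Venus signal; first of two replicates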
The depositor's hits bear a star; ? = inconclusive; . = no result given; & = joins results of further samples.

SMILES	Vaccinia stage	Vaccinia stage Venus
CC=Cc1ccc2n(c1=O)C[C@H]1[C@H](CO)[C@@H](C(=O)NCc3ccccc3)[C@@H]2N1CC (mixture of isomers)	7	1
C[C@H](CO)N1C[C@H](C)[C@@H](CN(C)CC2CCCC2)Oc2cc(Br)ccc2S1(=O)=O	-2	-13
C[C@H]1CN([C@@H](C)CO)C(=O)c2cc(NC(=O)Cc3ccccc3)ccc2O[C@H]1CN(C)CC1CC1	17	16
COc1ccc(NC(=O)Nc2ccc3c(c2)C(=O)N([C@@H](C)CO)C[C@H](C)[C@H](CN(C)S(=O)(=O)c2ccccc2)O3)cc1	1	5
COCC(=O)N1[C@H](CO)[C@@H]2c3ccccc3NC[C@@H]21	13	11
O=C(C[C@H]1CC[C@@H](NC(=O)c2ccccn2)[C@@H](CO)O1)NCc1cccc(F)c1	14	13
C[C@@H]1CCCCO[C@@H](CN(C)CC2CC2)[C@H](C)CN([C@@H](C)CO)C(=O)c2cc(NS(=O)(=O)c3ccccc3)ccc2O1	-2	-3
O=C(C[C@@H]1CC[C@H]2[C@@H](COC[C@@H](O)CN2S(=O)(=O)c2cccc(Cl)c2)O1)N1CCCCC1	-3	8
COc1ccc(CN(C)C[C@H]2OCCCC[C@@H](C)Oc3ccc(NS(=O)(=O)c4cn(C)cn4)cc3C(=O)N([C@@H](C)CO)C[C@@H]2C)cc1	10	3
COc1ccc(NC(=O)Nc2ccc3c(c2)C(=O)N([C@H](C)CO)C[C@@H](C)[C@H](CN(C)S(=O)(=O)c2ccc(F)cc2)OCCCC[C@@H](C)O3)cc1	-12	-2
CO[C@@H]1CN(C)C(=O)c2cc(NC(=O)c3nc4ccccc4s3)ccc2OC[C@@H](C)N(Cc2cccnc2)C[C@H]1C	?	.
C#CCNC(=O)C1=C[C@H](c2ccc3c(c2)OCO3)[C@@H](CCCO)[C@H](OCC)O1	20	11
O=C(C[C@H]1C=C[C@H](NC(=O)C2CCC2)[C@@H](CO)O1)NCc1ccccc1Cl	28	21
C[C@@H]1CCCCO[C@H](CN(C)C(=O)Nc2ccccc2)[C@@H](C)CN([C@@H](C)CO)C(=O)c2cc(NC(=O)CCC(F)(F)F)ccc2O1	-2	1
C[C@H](CO)N1C[C@H](C)[C@H](CN(C)C(=O)Nc2cc(F)ccc2F)Oc2cc(-c3ccc(C#N)cc3)ccc2S1(=O)=O	-8	-1

Among those listed so far, 4 contain nitrogen in an aromatic ring:
SMILES	Vaccinia stage	Vaccinia stage Venus
CC=Cc1ccc2n(c1=O)C[C@H]1[C@H](CO)[C@@H](C(=O)NCc3ccccc3)[C@@H]2N1CC (mixture of isomers)	7	1
O=C(C[C@H]1CC[C@@H](NC(=O)c2ccccn2)[C@@H](CO)O1)NCc1cccc(F)c1	14	13
COc1ccc(CN(C)C[C@H]2OCCCC[C@@H](C)Oc3ccc(NS(=O)(=O)c4cn(C)cn4)cc3C(=O)N([C@@H](C)CO)C[C@@H]2C)cc1	10	3
CO[C@@H]1CN(C)C(=O)c2cc(NC(=O)c3nc4ccccc4s3)ccc2OC[C@@H](C)N(Cc2cccnc2)C[C@H]1C	?	.

Further compounds:
SMILES	Vaccinia stage	Vaccinia stage Venus
Cc1noc(C)c1C(=O)N(C)C[C@H]1OCc2ccccc2-c2c(n(C)c3ccccc23)C(=O)N([C@H](C)CO)C[C@H]1C	21	-2
CCN1[C@@H]2Cn3c(ccc(-c4ccccc4)c3=O)[C@H]1[C@@H](C(=O)Nc1ccccc1)[C@@H]2CO	0	1
COc1ccccc1CNC(=O)C[C@H]1CC[C@H]2[C@@H](COC[C@H](O)CN2Cc2ccccc2)O1	6	-4
COc1ccc(C#Cc2cnc3c(c2)C(=O)N([C@H](C)CO)C[C@H](C)[C@@H](CN(C)CC2CCOCC2)O3)cc1	-14	-1
COCC#Cc1ccc([C@H]2[C@H](CO)N3CCCCN(S(=O)(=O)c4ccccc4C)C[C@@H]23)cc1	-34	-31
C[C@H]1CN([C@@H](C)CO)S(=O)(=O)c2ccc(C#Cc3cccnc3)cc2O[C@@H]1CN(C)C(=O)Nc1ccc2c(c1)OCO2	8&0	-3&-9
C[C@H](CO)N1C[C@H](C)[C@@H](CN(C)C(=O)Nc2cccc3ccccc23)OCCCC[C@H](C)Oc2ccc(NS(=O)(=O)c3ccccc3)cc2C1=O	2	6
Cc1noc(C)c1NC(=O)N(C)C[C@@H]1Oc2ccc(NC(=O)Nc3ccccc3)cc2CC(=O)N([C@H](C)CO)C[C@@H]1C	3	12
O=C(C[C@@H]1C[C@@H]2c3cc(NC(=O)C4CCOCC4)ccc3O[C@@H]2[C@@H](CO)O1)NCc1ccccc1	5	-3
CC=Cc1ccc2n(c1=O)C[C@@H]1[C@@H](CO)[C@H](C(=O)NCC)N(Cc3cocn3)[C@H]21 (mixture of isomers)	12	8
C[C@@H]1CN([C@H](C)CO)C(=O)c2cc(NC(=O)Nc3ccc(F)cc3)ccc2O[C@@H]1CN(C)S(=O)(=O)c1cccs1	-7	-8
O=C(Cc1cccnc1)N1CC2(C1)[C@H](c1ccccc1)[C@H](CO)N2C(=O)C1CC1	10	13
C[C@@H]1CN([C@@H](C)CO)S(=O)(=O)c2ccc(C#Cc3ccccc3F)cc2O[C@@H]1CN(C)CC1CCOCC1	?	.
CC(=O)N(C)C[C@@H]1Oc2ncc(/C=C/c3ccccc3)cc2C(=O)N([C@@H](C)CO)C[C@@H]1C	8	6
C[C@H](CO)N1C[C@H](C)[C@H](CN(C)CC2CCOCC2)Oc2cc(C#Cc3ccccc3F)ccc2S1(=O)=O	?	.
CNC(=O)C[C@@H]1CC[C@@H]2[C@@H](COc3ccc(NC(=O)Nc4cccc(Cl)c4)cc3C(=O)N2C)O1	-4	3
CC(=O)N(C)C[C@H]1Oc2ncc(-c3ccc(C)cc3)cc2C(=O)N([C@@H](C)CO)C[C@@H]1C	-26	-23
CCCNC(=O)C[C@@H]1CC[C@@H]2[C@H](COc3ccc(NC(=O)c4ccc5c(c4)OCO5)cc3C(=O)N2C)O1	13	19
C[C@H](CO)N1C[C@H](C)[C@H](CN(C)S(=O)(=O)c2ccccc2)Oc2ncc(C#CC3CCCCC3)cc2C1=O	?	.
CCC(=O)N1CC2(CN(C(=O)CN3CCOCC3)C2)c2c([nH]c3cc(OC)ccc23)[C@@H]1CO	7	8
O=C(Cc1ccccn1)NCC[C@@H]1CC[C@H](NS(=O)(=O)c2ccc(F)cc2)[C@@H](CO)O1	-2	5
C[C@@H]1CN([C@@H](C)CO)C(=O)Cc2cc(NC(=O)NC3CCCCC3)ccc2O[C@H]1CN(C)S(=O)(=O)c1ccc(F)cc1	-8	-3
O=C(Nc1ccc(Cl)cc1)N[C@H]1CC[C@@H](CCNC(=O)c2ccccc2F)O[C@@H]1CO	-3	7
COc1ccc2c3c([nH]c2c1)[C@H](CO)N(Cc1cc(F)ccc1F)CC31CN(C)C1	-17	-18
CCCC#Cc1cnc2c(c1)C(=O)N([C@@H](C)CO)C[C@H](C)[C@@H](CN(C)C(=O)CN1CCOCC1)O2	18	4
C[C@H]1CN([C@@H](C)CO)C(=O)c2cccc(NS(=O)(=O)c3cn(C)cn3)c2O[C@H]1CN(C)S(=O)(=O)c1ccc(F)cc1	12	10
C[C@H]1CN([C@@H](C)CO)S(=O)(=O)c2ccc(-c3ccncc3)cc2O[C@H]1CN(C)C	17	11
COc1ccccc1-c1ccc2n(c1=O)C[C@@H]1[C@@H](CO)[C@H](C(=O)N3CCCCC3)[C@H]2N1CC1CC1	2	7
CCCN(C)C[C@H]1Oc2ncc(-c3cccc(C(=O)N(C)C)c3)cc2C(=O)N([C@H](C)CO)C[C@@H]1C	37	10
CC(=O)N1CC2(C1)[C@@H](c1ccc(-c3ccc(F)cc3)cc1)[C@H](CO)N2C(C)=O	8	7

An excerpt of these results, field by field.
> CCC(=O)N1CC2(CN(C(=O)CN3CCOCC3)C2)c2c([nH]c3cc(OC)ccc23)[C@@H]1CO
  Vaccinia stage = 7
  Vaccinia stage Venus = 8
> O=C(Cc1ccccn1)NCC[C@@H]1CC[C@H](NS(=O)(=O)c2ccc(F)cc2)[C@@H](CO)O1
  Vaccinia stage = -2
  Vaccinia stage Venus = 5

Back to the main list, starting two compounds before the break.
SMILES	Vaccinia stage	Vaccinia stage Venus
CCCN(C)C[C@H]1Oc2ncc(-c3cccc(C(=O)N(C)C)c3)cc2C(=O)N([C@H](C)CO)C[C@@H]1C	37	10
CC(=O)N1CC2(C1)[C@@H](c1ccc(-c3ccc(F)cc3)cc1)[C@H](CO)N2C(C)=O	8	7
C[C@]12C=CC(=O)N1CCc1c2[nH]c2ccccc12	15	14
C[C@@H]1CCCCO[C@@H](CN(C)C(=O)Nc2ccc(F)cc2)[C@H](C)CN([C@H](C)CO)C(=O)c2cc(NS(=O)(=O)c3cccs3)ccc2O1	-28	-19
CCNC(=O)[C@H]1[C@H](CO)[C@H]2Cn3c(ccc(-c4ccc(F)cc4)c3=O)[C@H]2N1CC1CC1	4	5
COc1ccccc1-c1ccc([C@@H]2[C@H](C#N)N(C(=O)C3CCC3)[C@H]2CO)cc1	-25	-8
CO[C@@H]1CN(C)C(=O)c2cc(NC(=O)NC3CCCCC3)ccc2OC[C@H](C)N(CC2CC2)C[C@H]1C	-24	-20
CNC[C@H]1Oc2cc(C#CC3CCCC3)ccc2S(=O)(=O)N([C@@H](C)CO)C[C@H]1C	-29	-31
CCCC#Cc1ccc([C@@H]2[C@@H](C#N)N(S(=O)(=O)c3cccc(F)c3)[C@H]2CO)cc1	-33	-25
Cc1ccc(S(=O)(=O)N(C)C[C@H]2Oc3c(NS(=O)(=O)c4ccccc4)cccc3C(=O)N([C@@H](C)CO)C[C@H]2C)cc1	1	8
COc1ccc(NC(=O)N(C)C[C@H]2Oc3ccc(NC(=O)Nc4cccc5ccccc45)cc3C(=O)N([C@H](C)CO)C[C@@H]2C)cc1	10	7
C[C@H](CO)N1C[C@H](C)[C@H](CN(C)S(=O)(=O)c2cccs2)Oc2ncc(C#CCN(C)C)cc2C1=O	18	6
Cc1ccc(-c2ccc3c(c2)O[C@H](CN(C)C)[C@H](C)CN([C@@H](C)CO)S3(=O)=O)cc1	-9	-12
CCCC#Cc1cnc2c(c1)C(=O)N([C@H](C)CO)C[C@@H](C)[C@H](CN(C)C(=O)c1ccc(F)cc1)O2	8	1
C[C@@H]1CN([C@@H](C)CO)C(=O)c2c(c3ccccc3n2C)-c2ccccc2CO[C@@H]1CN(C)C(=O)Nc1cccc(F)c1	?	.
CNC[C@H]1Oc2ccc(NC(=O)Cc3ccccc3)cc2CC(=O)N([C@H](C)CO)C[C@H]1C	18	6
C[C@@H]1CCCCO[C@@H](CN(C)C(=O)Cc2ccccc2)[C@H](C)CN([C@@H](C)CO)C(=O)c2cc(NS(=O)(=O)c3cccs3)ccc2O1	-5	-3
COc1cccc(CN2[C@@H](CO)[C@H](c3ccccc3)C23CN(C(=O)C2CCCCC2)C3)c1	-9	-5
CCCN(C)C[C@@H]1Oc2cc(-c3ccccc3)ccc2S(=O)(=O)N([C@@H](C)CO)C[C@@H]1C	-12	-8
COc1ccc(NC(=O)N2CCCCN3[C@H](C2)[C@H](c2ccc(C#Cc4ccccn4)cc2)[C@@H]3CO)cc1	6	-1
O=C(C[C@H]1C=C[C@@H](NC(=O)Nc2ccc(F)cc2)[C@H](CO)O1)NCCN1CCCC1	3	8
C[C@@H]1CN([C@H](C)CO)C(=O)c2cc(NS(=O)(=O)c3cn(C)cn3)ccc2O[C@H]1CN(C)C(=O)NC1CCCCC1	20	13
O=C(Nc1cc(F)ccc1F)N1CCCCN2[C@H](C1)[C@@H](c1ccc(-c3ccncc3)cc1)[C@@H]2CO	4	-9
O=C(NCC[C@H]1CC[C@@H](NS(=O)(=O)c2cccc(F)c2)[C@@H](CO)O1)C1CCOCC1	-1	3
COCC(=O)N(C)C[C@H]1Oc2cc(-c3ccccc3)ccc2S(=O)(=O)N([C@H](C)CO)C[C@H]1C	-17	-7
C[C@@H]1CCCCO[C@@H](CN(C)CC2CCCCC2)[C@@H](C)CN([C@H](C)CO)C(=O)c2cc(NS(=O)(=O)c3ccc(F)cc3)ccc2O1	2	-5
O=C(C[C@@H]1CC[C@H]2[C@@H](COC[C@H](O)CN2S(=O)(=O)c2ccc(Cl)cc2)O1)NCCN1CCCCC1	3	-9
C[C@H]1CN([C@@H](C)CO)S(=O)(=O)c2ccc(C3=CCCC3)cc2O[C@@H]1CN(C)C(=O)C1CCCCC1	?	-14
N#C[C@H]1[C@@H](c2ccc(C#Cc3ccccc3F)cc2)[C@H](CO)N1C(=O)c1cccnc1	-24	-18
CO[C@H]1CN(C)C(=O)c2ccc(NC(=O)c3ccc(-c4ccccc4)cc3)cc2OC[C@H](C)NC[C@@H]1C	?	.
O=C(C1=C[C@@H](c2ccc(Br)cc2)C[C@@H](OCc2ccc(CO)cc2)O1)N1CCCC1	5	8
C[C@@H]1CN([C@@H](C)CO)C(=O)c2cccc(N(C)C)c2O[C@@H]1CN(C)C(=O)Nc1ccccc1	-4	-3
CCS(=O)(=O)N1CC(=O)N2[C@H](CO)[C@@H](c3ccc(C#CC4CC4)cc3)[C@H]2C1	-24	-14
Cc1noc(C)c1NC(=O)N(C)C[C@@H]1Oc2ccc(NC(=O)Nc3ccc(F)cc3)cc2CC(=O)N([C@H](C)CO)C[C@H]1C	12	9

Screening data as filed in PubChem.

A portion of the library; count on the stated rates, not on these rows.
